Screening data deposited in PubChem BioAssay by PCMD.
Calb biofilm kill – clotrimazole potentiators killing C. albicans biofilm, primary screen, 4-compound mixtures; inhibition, % at 7.6 µM; C. albicans biofilm persisters + clotrimazole, fluorescence viability; primary screen in compound mixtures of four per well; 120,000 tested, 0.02% active;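 active = inhibition above 30.3% in the primary screen of four-compound pools, then above 30% when the compound was retested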;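 note: compounds exposed to preformed 24 h biofilms for 48 h; the number belongs to the whole pool; some results filed as inactive read as strong as hits; inactives centre near 12; 0% = biofilm with clotrimazole alone and 100% = kill control; retested singly at about 60 µM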
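Incubation: 24 h biofilm formation, then 48 h compound exposure, 37 °C | Material: C. albicans biofilms | Buffer or medium: RPMI/MOPS medium, pH 7.0 | Measured by: 2-h Alamar Blue fluorescence, 535/590 nm excitation/emission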
Active calls of the source: *.

SMILES	Calb biofilm kill
Cc1ccc(N(Cc2cc3ccccc3[nH]c2=O)S(=O)(=O)c2ccccc2)cc1	7
COc1ccc(CC(=O)O/N=C(\N)Cc2cccc3ccccc23)cc1OC	10
COCCNCc1ccc(C(C)C)cc1	8
C=CCN1C(=O)NC(c2ccccc2)(C(F)(F)F)S/C1=C(\C#N)c1nnc(N2CCOCC2)n1-c1ccccc1 (stereo unspecified)	-2
Cc1ccc(OS(=O)(=O)c2ccc(-c3csc(C)n3)s2)c(C)c1	27
OCCNC(=S)Nc1ccc(Cl)c(Cl)c1	13
O=C(/C=C/c1ccc2ccccc2n1)c1cc(Cl)ccc1O	25
CN(C)c1ccc(-c2nc3ccccn3c2/N=C/c2ccc(Br)cc2)cc1	9
COCCn1c(C)cc(C(=O)CSc2nc3nc(C)cc(C)n3n2)c1C	16
COC(=O)/C=C/c1ccsc1NC(C)=O	0
COc1ccc(/C=C2\SC(=O)N(CC(=O)NN3CCN(C)CC3)C2=O)cc1OC	13
Cc1ccc(NC(=O)CCn2cnc3ccccc3c2=O)c(C)c1	30
CCOC(=O)c1c(NC(=O)CSc2nnc(N)s2)sc(C)c1-c1ccc(C)cc1	7
CC(C)(C)NC(=O)CN1CCC(NC(=O)C23CC4CC(CC(C4)C2)C3)CC1	9
CCOC(=O)Nc1ccc(OC)c([N+](=O)[O-])c1	6
CCC(=O)c1c[nH]c(C(=O)N2CCN(c3ccccc3)CC2)c1	-4
CSc1c(CC(=O)Nc2ccccc2C(F)(F)F)n(Cc2ccccc2)c2ccccc12	26
Cc1cccc(CN2CCN(Cc3ccc(-n4cccn4)cc3)CC2CCO)n1 (stereo unspecified)	11
CCCCCCCNC(=O)c1ccc(N2CCC3(CC2)OCCO3)c([N+](=O)[O-])c1	17
c1ccc2sc(-c3ccncc3)nc2c1	24
Cc1cccc2nc(-c3cccnc3)c(NCCC(C)C)n12	24
Cc1ccc2c(C(=O)CNc3nncs3)c(C)[nH]c2c1	14
CCOc1ccc(NC(C)=O)cc1[N+](=O)[O-]	21
O=C(Nc1cccnc1Oc1ncnc2cc(Cl)ccc12)c1ccc(F)cc1	24
COc1ccc(Cc2cc(-c3ccc(F)cc3)n[nH]c2=O)cc1	16
O=Cc1c(C(=O)O)n(CC(=O)O)c2ccccc12	11
COc1ccccc1C(=O)Nc1cccc(S(=O)(=O)N2CCCC2)c1	3
Cc1ccccc1C(=O)Nc1nc(SCc2ccc(Cl)cc2)n[nH]1	14
CCN(C(=O)CSc1cc(-c2ccccc2)c2ccc(OC)cc2n1)C1CCS(=O)(=O)C1 (stereo unspecified)	15
COc1ccc(-c2cccc(C3CC=CC4C3C(=O)N(Cc3ccccc3)C4c3ccc4ccccc4c3)c2)cc1 (stereo unspecified)	18
CC(C)Cn1c(/C=C/c2ccco2)nc2ccccc21	14
COc1ccc(NC(=O)CC2Nc3cccc4cccc(c34)NC2=O)cc1 (stereo unspecified)	15
O=c1nc2n(c3ccc(Br)cc13)CCS2	10
CCCCC(=O)OCC(=O)c1cc(C)n(-c2c(C)n(C)n(-c3ccccc3)c2=O)c1C	13
CNc1nc(N)c(C(=O)C23CC4CC(CC(C4)C2)C3)s1	4
COc1cc(/C=C(\C#N)C(=O)NCCc2ccccc2)cc(OC)c1O	17
CC1(C)C2CCC1(CS(=O)(=O)Nc1ccccc1)C(=O)C2 (stereo unspecified)	9
CCCCCCCCNc1nc(Cl)nc(NCCN2CCOCC2)n1	7
Cc1nc2cc(NS(=O)(=O)c3ccccc3)ccc2n1C	15
CCCCCCCCNC(=O)/C(C#N)=C/c1ccc2c(c1)OCCO2	14
CSc1ccc(/C=N/NC(=O)c2cc(O)cc(O)c2)cc1	10
C[C@H]1CC[C@]2(O[C@H](CCO)C[C@@H](O)[C@@H]2O)O1	-1
CC(=C/c1ccccc1)/C=N/NC(=O)CSc1nc(C)cc(C)n1	17
COc1ccc(NC(=O)C2=C(C)NC(=O)NC2c2cccs2)c(OC)c1 (stereo unspecified)	22
COc1cccc(N2CCN(C(=O)c3cccn4c(=O)c5c(C)c(C)sc5nc34)CC2)c1	11
COc1cc(Cl)c(C)cc1NC(=O)CNC(C)c1ccccc1OC (stereo unspecified)	12
CC(C)c1cc(CN2CCOCC2)cc(C(C)C)c1O	19
O=c1[nH]cc(C(F)(F)F)cc1NS(=O)(=O)c1ccccc1[N+](=O)[O-]	15
CCOc1cc2[nH]c(=S)n(CCCN(CC)CC)c(=O)c2cc1OCC	3
CCN(/N=C/c1ccc(N(C)C)cc1)c1nc2ccccc2[nH]1	14
COc1cccc(/C=N/n2c(-c3cc(C)[nH]n3)n[nH]c2=S)c1O	10
NS(=O)(=O)c1ccc(CCNC(=O)c2cc(-c3cc(Cl)ccc3O)n[nH]2)cc1	20
O=C(O)C1CCCCN1S(=O)(=O)c1cccc2nsnc12 (stereo unspecified)	23
Cn1c(/C=N/O)nc2ccccc21	18
Cc1ccc2nc(Cl)c(/C=N/n3c(C)nnc3C)cc2c1	-4
CCCN(Cc1nc(-c2ccc(Cl)cc2)no1)CC1CCCO1 (stereo unspecified)	30
O=C(/C=C/c1cccs1)NC(=S)NNC(=O)c1ccccc1O	27
O=C(NCc1ccccn1)c1cc(-c2ccccc2)nc2ccccc12	12
Cc1cccc(NC(=O)c2sc3nc(N)c(C#N)cc3c2N)c1	3
COc1ccc(Br)cc1CN(C)CC(=O)Nc1c(Cl)ccc(C)c1Cl	13
Continued.
SMILES	Calb biofilm kill
Cc1ccc(-n2c(C)cn(C(=O)c3ccccc3)c2=S)cc1	5
Cc1cc(NC(=O)c2ccc3c(c2)C(=O)N(CC(C)C)C3=O)no1	13
Cc1ccc2c(c1)C(=O)c1c(C(=O)O)cccc1-2	1
O=C1NC(=O)/C(=C/c2ccc(N3CCOCC3)o2)N1	14
Cn1nc(C(=O)NNc2c(F)c(F)cc(F)c2F)c2ccccc2c1=O	12
Cc1cc(C)c[n+](-c2nc3ccccc3nc2C(=C=[N-])C#N)c1	12
O=C(CSc1nc2ccccc2c(=O)n1CCC(=O)N1CCN(c2ccccc2)CC1)NCC1CCCO1 (stereo unspecified)	4
COCCN=c1scc(-c2cc(OC)ccc2OC)n1/N=C/c1c[nH]c2ccccc12	7
O=C(c1ccc(Oc2ccccc2)cc1)C1CCCN(C(=O)c2cnccn2)C1 (stereo unspecified)	14
Fc1ccccc1CN1CCCN(C(=S)Nc2cccc(Cl)c2)C1	16
CC1(C)C(c2ccco2)=[N+]([O-])C2(CCCCC2=O)N1O (stereo unspecified)	22
CNC(=S)N/N=C(\C)c1ccc(N2CCOCC2)cc1	30
CNc1ccn(C2CCCO2)c(=O)n1 (stereo unspecified)	16
O=C(O)CC(SCC(=O)Nc1ccc(Br)cc1)C(=O)O (stereo unspecified)	13
N/C(=N\OC(=O)CCn1cccc(C(F)(F)F)c1=O)c1ccc(OC(F)(F)F)cc1	18
Cc1cc(Cl)c(S(=O)(=O)NC(C)C)cc1OCC(N)=O	12
Cc1cc(/C=C2/C(=O)NN(c3ccccc3)C2=O)c(C)n1-c1ccc(O)cc1	18
O=C(CCCn1cnc([N+](=O)[O-])n1)Nc1ccc(F)c(Cl)c1	-9
COc1cc2c(cc1OC)C(C)N(Cc1ccc3c(c1)OCO3)CC2 (stereo unspecified)	19
Cc1ccc(NC(=O)Cc2ccccc2)c(C)c1	3
CC(C)n1c(=S)[nH]c2cc(Cl)ccc21	16
O=C(N/N=C\c1ccncc1)c1ccccc1O	17
CC(C)CCNC(=O)NC(=O)COC(=O)CCN=C1NS(=O)(=O)c2ccccc21	9
CC(=O)NNc1cc(C)nc(N)n1	14
COc1cccc(N(CC(=O)NCC2CCCO2)C(=O)CNS(=O)(=O)c2ccccc2)c1 (stereo unspecified)	-3
c1ccn2cc(-c3ccc4c(c3)OCO4)cc2c1	30
CCc1ccc(NC(=O)CSc2nc(O)cc(=O)n2C2CCCC2)cc1	-4
CC(OC(=O)CCCSc1nc2ccccc2s1)C(=O)NC(N)=O (stereo unspecified)	16
CCN(CC)c1ccc(/C=C2\C(=O)N(c3nnc(C)c(=O)[nH]3)N=C2C)cc1	19
Cc1ccc(S(=O)(=O)N(C)C)cc1NC(=O)COC(=O)c1n[nH]c(=O)c2ccccc12	14
CC(C)(C)C1=CC(=O)C(N2CCOCC2)=CC1=O	14
c1ccc(-c2cn(-c3ccccc3)c3[n+]2CCCS3)cc1	21
CCOc1cc(NC(=S)NCCCN(C)C)c(OCC)cc1NC(=O)c1cccs1	15
COc1ccc(/C=N/N2CCOCC2)cc1COc1ccc(Cl)cc1	7
Cn1nnnc1SC(C(=O)Nc1cccc(C(F)(F)F)c1)c1ccccc1 (stereo unspecified)	10
O=S(=O)(c1ccccc1)c1cc(O)ccc1O	9
O=C(COC(=O)Cn1cnc2ccccc21)Nc1cccc([N+](=O)[O-])c1	9
CNc1ccccc1C(=O)OCC(C)=O	6
COc1ccc(CNC(=O)/C=C/c2ccccc2[N+](=O)[O-])cc1	17
Cc1nc2ccccn2c1C(=O)NNS(=O)(=O)c1ccc(Cl)cc1	14
Cc1cc(C(=O)NNc2c(Cl)cccc2Cl)n(C(C)(C)C)n1	8
CNC(=S)NNC(=O)CSCc1c(Cl)cccc1Cl	9
Oc1c(Cl)cc(Cl)cc1/C=C/c1ccc2cccc(O)c2n1	15
COc1ccc(C(=O)NNC(=O)Cc2ccc(Cl)cc2)cc1	16
COc1ccccc1NC(=S)N(Cc1ccco1)Cc1cc2cc(C)cc(C)c2[nH]c1=O	10
CCc1ccc(NC(=O)Cn2cccc2)cc1	18
O=C(N/N=C/c1[nH]c2ccccc2c1Cl)c1cccc(Br)c1	15
CN(C)/C=C1\SC(=S)N(N2C(=O)C3C4C=CC(C4)C3C2=O)C1=O (stereo unspecified)	8
O=S(=O)(c1cccc(F)c1)N1CCc2sccc2C1c1ccc(OC(F)(F)F)cc1 (stereo unspecified)	15
C=CCNCCOCCOc1ccc(C)cc1Br	14
COC(=O)Cn1cnc2sc3c(c2c1=O)CCCC3	13
NC(=O)CSc1nc(C2CC2)nc2sc3c(c12)CCCC3	30
CC(=O)N1CCc2ccc(S(=O)(=O)N3CCN(C)CC3)cc21	15
COC(=O)C1(NC(=O)NC2CCCCC2)CCCCC1	11
Cc1ccc2c(Cl)cc(Cl)c(OCC(=O)NC3CCS(=O)(=O)C3)c2n1 (stereo unspecified)	8
CC(=O)N1CCN(S(=O)(=O)c2cccc(C(=O)Nc3ccccc3N3CCOCC3)c2)CC1	2
CCN(CC(=O)Nc1ccc2c(c1)OCCO2)C(=O)/C=C/c1ccccc1	-7
Cc1ccc(C)c(C(=O)CCC(=O)NCc2ccc(Cl)cc2)c1	5
COCCNC(=O)/C(C#N)=C\c1ccc(CNS(=O)(=O)c2ccccc2)o1	22
O=C(NNc1ccccn1)C(c1ccccc1)c1ccccc1	10
(list continues)
SMILES	Calb biofilm kill
Cc1nc(/C=C/c2ccccc2)[nH]c(=O)c1-c1ccccc1	17
O=C(CSc1n[nH]c(=O)[nH]c1=O)c1ccc([N+](=O)[O-])cc1	9
CCSc1ccc(C(=O)Nc2cccc(C)n2)cc1[N+](=O)[O-]	15
Cc1cc(CNC(=O)c2cccc([N+](=O)[O-])c2)c2ccccc2n1	10
CCN(CC)S(=O)(=O)c1ccc(C)c(NC(=O)CNCCN(C(C)C)C(C)C)c1	8
Cc1c(O)c(=O)ccn1C	13
Cc1nn(C)cc1C(C)NC(=O)c1cc(COc2c(F)cccc2F)on1 (stereo unspecified)	4
O=C1NCCCC1C(=O)N/N=C/c1ccccc1O (stereo unspecified)	12
O=C(CN1CCN(Cc2ccccc2)CC1)Nc1ccc2c(c1)CCC2	8
Cn1c(=O)c2c(ncn2CCNC2=NCCCCC2)n(C)c1=O	31
CCC(CO)Nc1ccc(-c2nn(C)c(=O)c3ccccc23)cc1[N+](=O)[O-] (stereo unspecified)	-7
Cc1ccc(NC(=O)COC(=O)Cc2csc(-c3ccc(Cl)cc3)n2)cc1C	-8
O=C(COC(=O)C1=COCCO1)NCc1ccc(Cl)cc1	1
Cc1cc2ccccc2n2c(SCC(=O)NCC3CCCO3)nnc12 (stereo unspecified)	13
Cc1cc(N2CC(C)OC(C)C2)n2cc(-c3ccccc3)nc2n1 (stereo unspecified)	16
CCCn1nc(NS(=O)(=O)c2ccccc2)c2cc3cc(C)ccc3nc21	8
COc1ccc(OCCNC(=O)C(Cc2c[nH]c3ccccc23)NC(C)=O)cc1 (stereo unspecified)	24

Some of the compounds tested (hit frequency here may not be typical).
